From PubChem BioAssay
PV pol inh: poliovirus RNA polymerase inhibition; P03300; % elongation, % (compound at 16.7 µg/mL); poliovirus polymerase elongation, fluorescence polarization; hits give low values; actives 0.66% (n = 150,000); in the data active means % elongation below about 90%; further: some results filed as inactive read as strong as hits
MbtI inh: blocks the Mycobacterium tuberculosis siderophore enzyme MbtI; actives 0.89% (n = 100,000); purified MbtI enzyme, fluorescence intensity read-out; AID 493033; inhibition, %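 (about 17 µg/mL by stock and volumes)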; P9WFX0;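 active means above 50% in both replicates, above 80% if mildly self-fluorescent; inactive means the rest, strongly fluorescent compounds included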;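 further: 0% = mean of negative and 100% = mean of positive controls; one replicate is shown; some compounds called inactive have numbers as strong as hits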
Target sequence (P9WFX0 whole entry, looked up): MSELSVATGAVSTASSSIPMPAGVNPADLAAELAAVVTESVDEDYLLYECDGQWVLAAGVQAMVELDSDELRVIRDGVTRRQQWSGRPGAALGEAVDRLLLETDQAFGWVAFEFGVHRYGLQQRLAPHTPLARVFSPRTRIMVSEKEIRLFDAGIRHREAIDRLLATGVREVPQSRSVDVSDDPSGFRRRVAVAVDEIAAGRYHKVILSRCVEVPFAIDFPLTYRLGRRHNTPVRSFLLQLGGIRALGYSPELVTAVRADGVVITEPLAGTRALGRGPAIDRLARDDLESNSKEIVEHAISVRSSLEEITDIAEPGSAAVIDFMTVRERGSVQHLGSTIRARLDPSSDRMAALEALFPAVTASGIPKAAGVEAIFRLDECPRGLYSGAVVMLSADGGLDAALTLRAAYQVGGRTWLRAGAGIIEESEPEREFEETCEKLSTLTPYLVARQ
Mtb MenB inh: inhibitors of Mycobacterium tuberculosis MenB enzyme; P9WNP5; MenB enzyme assay, absorbance read-out; some hits fall short of the stated cut; inhibition, %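 (about 12 µg/mL by stock and volumes)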; actives 0.43% (n = 100,000); AID 540299;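 active means mean of two replicates above 30%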;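 further: 0% = no compound and 100% = wells with inactive enzyme; the first replicate is given; strong numbers were not always called active; inactives centre near -10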
Target sequence (P9WNP5 whole entry, looked up): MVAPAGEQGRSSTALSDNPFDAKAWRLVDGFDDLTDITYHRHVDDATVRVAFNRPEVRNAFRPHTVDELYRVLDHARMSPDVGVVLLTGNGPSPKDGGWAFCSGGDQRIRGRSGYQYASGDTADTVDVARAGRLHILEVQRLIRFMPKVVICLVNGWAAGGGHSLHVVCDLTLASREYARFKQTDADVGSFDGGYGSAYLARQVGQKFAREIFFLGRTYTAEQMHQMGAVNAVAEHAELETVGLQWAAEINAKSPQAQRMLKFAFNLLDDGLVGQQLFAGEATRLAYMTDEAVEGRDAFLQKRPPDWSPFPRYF
PV pol inh intensity: second read-out of PV pol inh, no call of its own (marks repeat the call); % elongation; measured here: total intensity read-out; formula for this scale not given here;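 total fluorescence in place of polarization; lower means less elongation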
Active calls of the source: *; i = inactive; x = no result given; & = joins results of further samples.

Compound,PV pol inh,PV pol inh intensity,MbtI inh,Mtb MenB inh
COc1cc2c(cc1OC)C(c1ccc(Cl)cc1)=NCC2,110,108,-2,-41
CNS(=O)(=O)c1cccc(C(=O)OCC(=O)N2CCCc3ccccc32)c1,95,93,-15,-19
CCN1C(=O)C(=Cc2ccc(N(C)C)cc2)C(=O)N(CC)C1=S,102,105,-2,-12
Cc1ccc(-c2csc3ncnc(NCCO)c23)cc1,108,103,x,-20
CS(=O)(=O)Nc1ccc(C(=O)CSc2ccc3c(c2)OCCO3)cc1,109,109,7,-4
CCOC(=O)c1nc2ccccc2s1,100,98,27,3
O=C(CN1C(=O)/C(=C\c2cccc(Cl)c2)Oc2ccccc21)NCC1COc2ccccc2O1 (configuration not stated),102,99,i,-2
CCN(CCOC)c1nsnc1OC(C)C,99,99,20,-20
CCCCN(C(=O)C1=CC=CN2CCS(=O)(=O)N=C12)c1ccccc1,101,107,-11,-7
CC(C)COc1ccc(C(=O)Nc2ncn[nH]2)cc1,101,103,-17,8
CSc1sc(-c2ccon2)c(-c2ccco2)c1C#N,108,113,7,-13
Cc1ccc(C2=NN(C(=O)CSc3nc4nc(C)cc(C)n4n3)C(c3ccco3)C2)cc1 (configuration not stated),103,107,11,-4
COC(=O)c1c(NC(=O)C(F)(F)F)sc2c1CCCC2,88*,92*,x,-20
Cc1ccccc1OCC(O)CN(Cc1ccccc1)Cc1ccco1 (configuration not stated),95,95,-23,-2
Cc1ccc(-c2ccc(CCC(=O)O)n2C(C)C)cc1,102,103,115,9
O=C(Cn1nnc(N2CCOCC2)n1)c1ccc(Cl)cc1,101,104,10,10
C#CC(CC)(CC)NC(=O)c1ccccc1Br,102,99,29,-33
COC(=O)c1c(N)c(C#N)c2n1CCCC2,105,102,-1,-11
Cc1[nH]c2ccccc2c1C(=O)C(C)N1CCN(c2ncc(C(F)(F)F)cc2Cl)CC1 (configuration not stated),106,105,-8,-35
CCN(Cc1ccccc1)C(=O)c1ccc2c(Cl)c3c(nc2c1)CCCC3,98,92,4,-26
Fc1cccc(Cl)c1C1N2CCCCN12 (configuration not stated),102,105,x,-16
O=C(/C=C/c1cccc(Br)c1)N1CCN(c2ccccc2O)CC1,102,97,0,x
O=C(CN1CCc2ccccc2C1)N1N=C(c2ccc(Cl)cc2)CC1c1ccco1 (configuration not stated),109,106,1,-30
CSc1nnc(NC(=O)Cc2ccccc2)s1,101,103,-7,3
CCC(C)C(=O)Nc1cccc(C(=O)O)c1 (configuration not stated),103,103,-11,-18
Cc1cc(C)c2ccc(=O)cc-2o1,97,127,-33,-62
C=CCNc1nc(C(=O)OCc2nnc(-c3ccc(Br)cc3)o2)cs1,110,106,-10,-27
CN(C1CCCCC1)S(=O)(=O)c1ccc(SCC(=O)NC2CC2)nc1,100,111,7,-9
CCOC(=O)N1CCN(C(=O)c2ccc(/C=C3\Oc4ccccc4NC3=O)cc2)CC1,100,103,-127,-9
O=C(O)C(Br)(Cc1ccccc1)C(=O)O,104,109,-18,x
CN(C)S(=O)(=O)c1cccc(CN2CCCc3ccccc32)c1,121,156,6,0
O=c1cc(CSc2nnc(COc3ccccc3)o2)c2ccccc2[nH]1,106,99,-10,-29
COc1ccc2c(c1)CCC(C)N2C(=O)Nc1ccc(OC)c(OC)c1 (configuration not stated),103,100,2,-11
Cc1ccc(C2C=C(C34CC5CC(CC(C5)C3)C4)NC(=S)N2)cc1 (configuration not stated),101,95,11,-22
CC(C)c1ncc2c(n1)-c1cc(Cl)ccc1SC2,99,107,3,-3
Cc1nn(CC(=O)N2CCCC2)c(C)c1NC(=O)c1cnn2c1NC(c1ccco1)CC2C(F)(F)F (configuration not stated),99,100,-2,-17
CC(C)C(=O)Nc1ncc(Cc2ccccc2Cl)s1,103,109,x,-35
CC1CCN(C(=O)COC(=O)c2ccccc2O)CC1,106,108,-87,-2
CN1C(=O)C(C)(C)c2cc(S(=O)(=O)N(C)CC(=O)NCc3cccs3)ccc21,101,101,8,8
Cc1ccc(C(O)c2cccnc2)o1 (configuration not stated),99,103,-1,5
Cc1ccc(NC(=O)CCCC(=O)c2ccccc2)cc1Cl,100,98,-2,-9
C=CCOc1ccc(C(=O)N2CCc3ccccc3C2)cc1,101,104,-22,-7
Cc1ccc(Nc2c(-c3c[nH]c4ccccc34)nc3c[n+](CC(N)=O)ccn23)cc1,115,133,-5,-54
Clc1cc2c(cc1Cl)Nc1cc(Cl)c(Cl)cc1N2,100,101,95*,14
CC(O)C12CC3CC(CC(C3)C1)C2 (configuration not stated),101,100,-10,x
Cc1cc(=O)[nH]c(-c2ccc(C(F)(F)F)cc2)n1,102,97,22,7
Cc1cccc(NC(=O)CN2c3cccc4cccc(c34)S2(=O)=O)c1,101,105,9,-24
c1ccc2c(OCCCCCn3ccnc3)cccc2c1,99,99,62,3
O=S(=O)(NC1CCCCC1Oc1ccccc1)c1ccccc1 (configuration not stated),100,106,-10,x
O=C(CCC(=O)N1CCN(S(=O)(=O)c2ccccc2)CC1)Nc1ccc2c(c1)OCCO2,98,102,-8,-8
O=C(O)Cn1cc(C(=O)c2ccccc2F)c2ccccc21,102,103,4,5
CC1CCCCN1S(=O)(=O)c1ccc2c(c1)C(C)(C)C(=O)N2C (configuration not stated),101,103,-6,2
O=C(NCCN1CCOCC1)NC(=O)c1ccccc1,104,103,2,-20
O=C(CSc1ccc(Cl)cc1)NC1CCCc2ccccc21 (configuration not stated),104,107,-5,x
CC(=O)Nc1ccc(-n2c(C)ccc2C)cc1,103,103,3,x
CCN(CC)S(=O)(=O)c1ccc(N2CC(C(=O)Nc3nc4ccccc4s3)CC2=O)cc1 (configuration not stated),102,107,6,-17
FC(F)(F)c1cccc(OCc2nnc3n2CCCCC3)c1,101,104,-8,x
COC(=O)Nc1nc2ccc(SC(C)C)cc2[nH]1,99,100,4,6
c1ccc2nc3c(nc2c1)sc1nc2ccccc2n13,102,101,-2,-10
CN(C(=O)CSc1nnc(Cc2cccs2)n1CCc1ccccc1)c1ccccc1,103,106,0,-20

(more compounds)
Compound,PV pol inh,PV pol inh intensity,MbtI inh,Mtb MenB inh
CCOC(=O)C1=C(CSc2nnnn2-c2ccccc2)NC(=O)NC1C (configuration not stated),101,101,-2,-14
Cc1cccc(N2CCN(CC(=O)c3ccc4cc[nH]c4c3)CC2C)c1 (configuration not stated),101,102,6,-19
CCc1nc2ccc(C(=O)NC(C)C)cc2nc1CC,101,102,-10,-20
O=C(NC1=NCCS1)c1ccccc1,100,100,-11,-1
Cc1ccc(N2CCN(C(=O)c3cnn4c(C)c(Cc5ccccc5Cl)c(C)nc34)CC2C)cc1 (configuration not stated),103,106,11,-2
CCc1ccccc1NNC(=O)c1snnc1C,102,105,6,-4
O=C(CCn1cnc2ccccc21)N/N=C/c1ccccc1,99,99,7,-56
Cc1nc2ccc(NC(=O)Nc3ccccc3)cc2o1,99,102,0,-3
CCn1c(=O)c2cc(C(=O)N3CCC4(CC3)OCCO4)sc2c2ccccc21,100,101,-3,-17
NNC(=O)C1CCS(=O)(=O)C1 (configuration not stated),105,121,-2,-5
CC1CCCCN1C(=O)CSc1nnc2c(Cl)cc(Cl)cn12 (configuration not stated),108,107,-3,6
O=C1CSC(c2ccccc2Cl)c2cc(Cl)ccc2N1 (configuration not stated),104&100,101&100,-18,-12

(next part)
mol	PV pol inh	PV pol inh intensity	MbtI inh	Mtb MenB inh
O=C1Cc2cc(C(=O)CSc3nnc(-c4ccccn4)c(-c4ccccn4)n3)ccc2N1	101	101	5	0
Clc1c(C=NCc2ccco2)sc2ccccc12	103	101	3	-23
Cc1[nH]c2ccc(C(=O)O)cc2c1C(C)C	98	103	23	-36
COc1ccc(Cn2c(O)c(/C=N/Nc3nc(C)cc(=O)[nH]3)c3ccccc3c2=O)cc1	136	201	-10	-87
N#C/C(=C\c1cccnc1)C(=O)OCc1ccccc1	103	102	6	-11
C=CCc1cccc(C2Nc3ccccc3C(=O)N2O)c1O (configuration not stated)	104	101	9	-12
O=C(Nc1cccs1)Nc1nnc(C2CC2)s1	110	113	9	-3
CSc1cccc(NC(=O)CN(C)S(=O)(=O)c2cnc[nH]2)c1	103	101	-4	-6
COc1cc2c(cc1OC)C(C)N(C(=O)Nc1ccccc1)CC2 (configuration not stated)	103	106	-7	5
COC(=O)c1ccc(COc2ccc(C3OC(C)CC(C)(C)O3)cc2OC)cc1 (configuration not stated)	99	102	-4	-19
Cc1ccc(SCCNC(=O)c2cccnc2Oc2ccccc2)cc1	110	113	2	-22
CSc1nc2c(c(C(F)(F)F)n1)CC(C)CC2 (configuration not stated)	99	101	14	-19
CCCS(=O)(=O)/C(C#N)=C/c1sccc1Oc1ccccc1	109	109	-10	-22
CC1(C)Cc2c(c3ccccc3n2-c2ccccc2)C(C)(C)N1	101	103	17	-13
O=C(NS(=O)(=O)c1ccc(N=NN2CCOCC2)cc1)C12CC3CC(CC(C3)C1)C2	101	102	34	-3
Cn1c(C(=O)O)c(CNC2CCCCC2)c2ccccc21	101	105	32	-4
O=c1[nH]cnc2c1ncn2[C@@H]1C[C@@H](O)[C@H](CO)O1	102	105	-13	20
O=C(Nc1nncs1)C1c2ccccc2Oc2ccccc21	101	103	4	-7
Cc1ccc2nc(N3CCN(C=O)CC3)nc(-c3ccccc3)c2c1	98	102	12	-8
O=C(NCCc1ccccc1)c1noc2c1CCCC2	101	102	-12	2
Cc1ccc(/C=c2/sc3nc(=O)cnn3c2=O)cc1	x	x	5	0
CC(C)Nc1ccc(Nc2ccnc3cc4ccccc4cc23)cc1	98	93	20	-120
NN(CCC(=O)N1CCCCC1)C1=NS(=O)(=O)c2ccccc21	101	104	-1	28
C/C(=N/OCC(=O)Nc1sc2c(c1C#N)CCCC2)c1cccs1	101	99	-3	-13
O=C(O)COCC(=O)Nc1ccccc1-c1ccccc1	98	100	-24	-50
NC(=O)Nc1ccc(C(=O)OCC(=O)NCc2ccccc2)cc1	107	110	-13	-25
COc1ccc(OC)c(N=c2cc(-c3ccc4c(c3)OCO4)oc3ccccc23)c1	104	104	-17	-12
CC(Cc1ccccc1)NC(=O)C1CCCNC1=O (configuration not stated)	103	98	x	-3
N#C/C(C(=O)NCc1ccco1)=C1/SC=C(c2ccccc2)N1c1ccccc1	101	107	x	-27
CCN(CC)S(=O)(=O)c1ccc2nc(Cc3ccccc3)[nH]c2c1	103	102	-8	-5
COC(NC(=O)Nc1nc2ccccc2s1)(C(F)(F)F)C(F)(F)F	100	104	0	-14
CC(C)c1ccc(NC(=O)NCC2CCCO2)cc1 (configuration not stated)	98	94	x	2
COc1ccc(NC(=O)CN=C2NS(=O)(=O)C(c3ccc(F)cc3)=C2C)cc1	102	103	-5	8
c1ccc(CCc2nn3cnnc3s2)cc1	102	104	-17	8
O=C(NC1CCCC1)c1ccc(Br)o1	112	114	2	-13
Cc1cc(C)n(-c2ccc(C(=O)OCC(=O)Nc3sc4c(c3C(N)=O)CCC4)cc2)n1	95	95	16	7
COc1cc(C(=O)NN)c(-n2c(C)ccc2C)cc1OC	105	98	-12	-14
N=c1c2c3c(sc2nc2n1CCCCC2)CCCCC3	102	102	14	10
Cc1cc2nc(N3CCN(S(=O)(=O)c4ccccc4)CC3)c3ccccc3n2n1	105	103	6	3
CCOc1nc(NC(C)(C)CO)nc(OCC)n1	104	106	-5	-21
CC1CCC(NC(=O)C(C)C2Sc3ccccc3N(Cc3cccc(Cl)c3)C2=O)CC1 (configuration not stated)	104	109	-3	-22
CCN1CCN(CCCNC(=O)C2c3ccccc3C(=O)N(CCOC)C2c2cn(C)c3ccccc23)CC1 (configuration not stated)	105	101	-5	-15
CN1CCc2c(n(CC(O)CN3CCCC3)c3ccccc23)C1=O (configuration not stated)	100	97	18	10
COc1cccc(-c2nc3c(c(SC)n2)Cc2c(CO)cnc(C)c2O3)c1	104	101	7	-20
O=C(Nc1ccccc1)C(F)(F)F	106	93	0	-28
Cc1nc2c3ccccc3ncn2n1	100	94	1	5

Exported field by field: part of the list above
N#C/C(C(=O)NCc1ccco1)=C1/SC=C(c2ccccc2)N1c1ccccc1
  PV pol inh: 101
  PV pol inh intensity: 107
  MbtI inh: x
  Mtb MenB inh: -27

CC(C)c1ccc(NC(=O)NCC2CCCO2)cc1 (configuration not stated)
  PV pol inh: 98
  PV pol inh intensity: 94
  MbtI inh: x
  Mtb MenB inh: 2

Cc1cc(C)n(-c2ccc(C(=O)OCC(=O)Nc3sc4c(c3C(N)=O)CCC4)cc2)n1
  PV pol inh: 95
  PV pol inh intensity: 95
  MbtI inh: 16
  Mtb MenB inh: 7

O=C(Nc1ccccc1)C(F)(F)F
  PV pol inh: 106
  PV pol inh intensity: 93
  MbtI inh: 0
  Mtb MenB inh: -28
